KCNQ2 enhance: potentiators of rat KCNQ2 potassium channel. Potassium voltage-gated channel subfamily KQT member 2 (Rattus norvegicus), O88943. CHO-K1 KCNQ2, FluxOR thallium flux fluorescence; hits give high values. B-score at 10 µM. hit rate 0.54% among 310,000;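 active = fluorescence ratio B-score at least 3 SD of library B-scores, with initial fluorescence B-score within 3 SD, cut at about 5.3 in these data; same plate scores as AID 2156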;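 note: B-score of peak minus minimum over baseline fluorescence ratio after K+ and Tl+ stimulus; positive B-score means potentiation of KCNQ2 with more thallium influx and brighter signal; only the inactives scoring about 0 or higher are listed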
Target sequence (O88943 whole entry, looked up): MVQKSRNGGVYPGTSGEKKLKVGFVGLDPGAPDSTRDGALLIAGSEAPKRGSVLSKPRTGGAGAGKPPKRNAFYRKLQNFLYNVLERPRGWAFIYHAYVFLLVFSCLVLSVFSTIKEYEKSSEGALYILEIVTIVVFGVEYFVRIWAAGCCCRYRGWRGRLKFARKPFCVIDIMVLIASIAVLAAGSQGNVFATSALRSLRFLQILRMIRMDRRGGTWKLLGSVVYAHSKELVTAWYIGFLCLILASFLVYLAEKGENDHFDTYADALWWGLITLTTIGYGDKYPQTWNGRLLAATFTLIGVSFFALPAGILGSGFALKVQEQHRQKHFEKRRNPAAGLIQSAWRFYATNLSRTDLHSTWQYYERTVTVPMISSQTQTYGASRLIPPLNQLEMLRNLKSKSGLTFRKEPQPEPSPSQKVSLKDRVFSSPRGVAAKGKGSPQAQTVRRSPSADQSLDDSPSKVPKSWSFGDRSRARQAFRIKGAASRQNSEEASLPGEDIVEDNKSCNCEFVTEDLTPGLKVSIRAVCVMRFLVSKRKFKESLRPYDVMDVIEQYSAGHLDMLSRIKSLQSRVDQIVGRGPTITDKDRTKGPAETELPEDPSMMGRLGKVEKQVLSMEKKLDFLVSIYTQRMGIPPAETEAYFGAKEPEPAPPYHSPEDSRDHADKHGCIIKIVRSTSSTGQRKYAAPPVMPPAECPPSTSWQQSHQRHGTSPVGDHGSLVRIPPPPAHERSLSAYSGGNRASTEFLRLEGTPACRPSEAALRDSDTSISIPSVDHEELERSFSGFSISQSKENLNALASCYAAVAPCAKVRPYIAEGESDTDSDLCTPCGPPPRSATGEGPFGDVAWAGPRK
KCNQ2 enhance baseline: also measured in KCNQ2 enhance; calls as there; B-score; compound at 10 µM; measured here: initial fluorescence intensity artifact check;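 brightness before thallium and not channel activity; 0 = typical well and far values either way flag optical interference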
* marks the source's active call; other numbers are inactive results. An excerpt; rates above refer to the full screens.

Results follow in this order: KCNQ2 enhance | KCNQ2 enhance baseline
CCC(NC(=S)NCc1ccc(F)cc1)c1ccccc1 (centres undefined)
 : 1.3 | 1.4
CCOc1ccc2c(c1)c(N=NC(=N)N)c(O)n2C
 : 0.99 | -0.35
CC(=O)OCCSc1c(-c2ccccc2)c2cc(Cl)ccc2[nH]c1=O
 : 0.08 | 0.58
COc1ccc(CCNC(=O)/C(=C/c2cccnc2)NC(=O)c2ccccc2)cc1
 : 0.12 | 1.9
CNC(C)c1ccc(S(N)(=O)=O)cc1 (centres undefined)
 : 0.28 | 0.55
O=c1[nH]c2ccc(NS(=O)(=O)c3ccc([N+](=O)[O-])cc3)cc2[nH]1
 : 1.3 | 0.66
CCC(c1nnnn1C(C)(C)C)N1CCN(C2CCCC2)CC1 (centres undefined)
 : 0.61 | -0.42
COc1cc(OC)cc(C(=O)NC2CCN(Cc3nnnn3Cc3ccc(F)cc3)CC2)c1
 : 0.06 | -1.9
CCc1ccc(N(C2C=CS(=O)(=O)C2)S(=O)(=O)c2ccc(C)cc2)cc1 (centres undefined)
 : 0.63 | 0.08
O=C(NC(=S)Nc1ccc(N2CCCCC2)cc1)c1ccco1
 : 8.5* | 0.68*
COc1cccc(CNC(=O)c2ccccc2-c2ccccc2)c1
 : 0.06 | 2.2
CC(=O)NN=C1CCC(c2ccccc2)CC1 (centres undefined)
 : 0.09 | 0.81
COc1cc(/C=C2/C(=N)N3C(c4ccccc4)=CSC3=NC2=O)ccc1OCC(=O)O
 : 1.6 | -0.11
Brc1ccc(-c2csc(/N=C/N3CCCC3)n2)cc1
 : 0.69 | 0
O=C(COc1ncnc2ccccc12)Nc1cc([N+](=O)[O-])ccc1Cl
 : 0.26 | -1.2
COc1ccc(C(=O)COc2ccccc2C(=O)Nc2ccccc2)cc1
 : 0.98 | -1.2
Cc1cccc(C)c1OCc1nc2ccccc2c(=O)n1/N=C/c1ccc(OCC(=O)O)cc1
 : 0.26 | -1.3
N#Cc1ccc(-c2ccc(OCC(O)CN3CCCCC3)cc2)cc1 (centres undefined)
 : 0.05 | -0.52
CCCC(=O)N(Cc1cc(=O)[nH]c2ccccc12)c1cccc(C)c1
 : 0.05 | -0.02
CCCOC(=O)C1=C(C)OC23OC(N)=C(C#N)C12C(=O)c1ccccc13 (centres undefined)
 : 1.5 | 1.1
CC(C)C(Nc1ccc(C(F)(F)F)cc1[N+](=O)[O-])C(=O)O (centres undefined)
 : 1.2 | -0.76
Cn1nc([N+](=O)[O-])nc1N1CCN(c2ccc(F)cc2)CC1
 : 2 | -2.2
COc1ccc(OCC(O)CN2CCC(CN3C(=O)c4cccc5cccc(c45)C3=O)CC2)cc1 (centres undefined)
 : 3.1 | -2.3
COc1ccc(C(=O)NC(=S)Nc2ccc(S(N)(=O)=O)cc2)cc1
 : 1.6 | 0.13
Cc1c(Cl)cccc1Nc1nc(N)nc(CSCCO)n1
 : 0.87 | -3
COc1ccc(OC)c(NC(=O)CN2CCC(NC(=O)c3ccccc3C)CC2)c1
 : 1.6 | 1
O=C(Nc1ccc(C(=O)NN2C(=O)c3ccccc3C2=O)cc1)c1ccccc1
 : 0.93 | 0.4
COc1cccc(CN2CCN(CCCc3ccccc3)C(CCO)C2)c1O (centres undefined)
 : 1.6 | -0.85
CCOC(=O)N1CCC(Nc2c(NCCCN3CCN(C4CCCCC4)CC3)c(=O)c2=O)CC1
 : 0.58 | -0.39
COc1cc(/C=N/n2nnnc2N)ccc1OCc1c(C)no[n+]1[O-]
 : 0.04 | 1.5
COc1ccc(-c2cc(N3C(=O)Nc4ccccc4N3O)n[nH]2)cc1
 : 0.13 | -0.72
O=C1N2CCSC2=NC1(NS(=O)(=O)c1ccccc1)C(F)(F)F (centres undefined)
 : 2.6 | -0.03
Cc1cc(OCC(=O)NNC(=S)NC(=O)c2cccs2)ccc1Cl
 : 0.47 | -1.2
CCOC(=O)Cn1nc(C(F)F)c(Br)c1C
 : 1.9 | -0.08
O=C(/C=C/c1ccccc1)N1CCOCC1
 : 1.1 | -0.65
COc1ccc(OCCSc2nc(N)cc(N)n2)cc1
 : 0.67 | -1.3
COc1ccc(NC(=O)C2CCCN(S(C)(=O)=O)C2)cc1OC (centres undefined)
 : 1.6 | 0.14
Cc1cc2ccccc2nc1Br
 : 0.31 | 1.4
Cc1ccc(CN2CC34C=CC(O3)C(C(=O)NCc3ccco3)C4C2=O)cc1 (centres undefined)
 : 1.1 | -1.4
COc1cccc(C(=O)N2CCN(C3CCCCC3)CC2)c1
 : 0.15 | 1.2
COC(=O)c1sccc1NC(=O)Nc1ccc(OC)cc1
 : 1.1 | -0.02
COc1cc(CCC(=O)NCc2ccc(F)cc2)cc(OC)c1OC
 : 1.9 | 0.35
C/C(=N\NC(=O)CC1N=C(Cc2ccccc2)NNC1=O)c1ccc(C)cc1 (centres undefined)
 : 0.85 | 0.06
Cc1ccccc1Nc1c(-c2ccccc2)nc2ncccn12
 : 0.05 | -0.31
O=C1CCC(c2ccccc2)c2ccccc21 (centres undefined)
 : 0.58 | -0.59

Exported bar-delimited: seven of the compounds above.
smiles | KCNQ2 enhance | KCNQ2 enhance baseline
O=C(/C=C/c1ccccc1)N1CCOCC1 | 1.1 | -0.65
COc1ccc(OCCSc2nc(N)cc(N)n2)cc1 | 0.67 | -1.3
COc1ccc(NC(=O)C2CCCN(S(C)(=O)=O)C2)cc1OC (centres undefined) | 1.6 | 0.14
Cc1cc2ccccc2nc1Br | 0.31 | 1.4
Cc1ccc(CN2CC34C=CC(O3)C(C(=O)NCc3ccco3)C4C2=O)cc1 (centres undefined) | 1.1 | -1.4
COc1cccc(C(=O)N2CCN(C3CCCCC3)CC2)c1 | 0.15 | 1.2
COC(=O)c1sccc1NC(=O)Nc1ccc(OC)cc1 | 1.1 | -0.02

Continuation:
Results follow in this order: KCNQ2 enhance | KCNQ2 enhance baseline
O=S(=O)(c1ccccc1)N1CCCN(S(=O)(=O)c2ccccc2)CC1
 : 0.08 | 0.8
CCCCc1nc(SCCN2CCOCC2)c2c(=O)n(C)c(=O)n(C)c2n1
 : 4.3 | -0.56
COc1ccnc(Oc2ccccc2)c1C#N
 : 0.97 | -1.5
CCc1ccccc1OCC(=O)OCC(=O)c1c(N)n(C)c(=O)n(C)c1=O
 : 1.7 | 0
Nn1c(COc2ccccc2F)nnc1SCC(=O)NC1CCCC1
 : 1.3 | -1.3
COc1ccc(NC(=S)N(CCc2c(C)[nH]c3ccccc23)Cc2ccco2)cc1
 : 0.05 | -0.01
CCc1ccc(N2C(=O)CC(N(CC3CCCO3)C(=O)/C=C/C(=O)O)C2=O)cc1 (centres undefined)
 : 0.66 | 0.45
CCCCC(=O)Nc1nc(C)c(C(C)=O)s1
 : 0.17 | 1.3
O=C(CCNc1n[nH]c(=O)[nH]c1=O)N1CCOCC1
 : 0.09 | 0.58
Cc1cc(Cl)c(S(=O)(=O)NC2CCCC2)cc1OCC(N)=O
 : 2.3 | 0.99
COc1ccccc1C(=O)NCC(c1cccnc1)N(C)C (centres undefined)
 : 0.01 | -0.99
COc1cc(CCC(=O)NCc2ccc(Cl)cc2)cc(OC)c1OC
 : 1 | -0.82
CN(C(=O)COC(=O)c1cc(S(=O)(=O)N2CCCCC2)ccc1N1CCOCC1)C1CCS(=O)(=O)C1 (centres undefined)
 : 0.57 | 0.04
O=C(Nc1nncs1)c1ccc(Br)c(S(=O)(=O)N2CCCC2)c1
 : 0.39 | -0.8
CCn1c(SCC(=O)Nc2nc3ccccc3s2)nnc1-c1ccc(OC)cc1
 : 0.02 | 0.23
O=C(CCN1C(=O)c2ccncc2C1=O)Nc1ccc(F)cc1
 : 0.49 | 1.9
CCCC12CN3CC(CCC)(CN(C1)C3C(O)C(O)C(O)CO)C2=O (centres undefined)
 : 1.8 | 1.4
Cc1ccc(C)c(Cn2nnc3c(=O)[nH]c(C4CCN(C(=O)c5ccco5)CC4)nc32)c1
 : 0.51 | -0.8
C=CCOC(=O)C1=C(C)Nc2nnnn2C1c1ccc(OC)cc1OC (centres undefined)
 : 0.38 | -0.1
C/C(CC(=O)NCCN1CCOCC1)=N\NC(=O)c1ccncc1
 : 0.52 | 0.02
Nc1ccc(S(=O)(=O)N2CCC(Cc3ccccc3)CC2)cc1
 : 1.9 | -0.25
N#C/C(=C\c1cccs1)C(=O)c1ccccc1
 : 0.01 | -1.2
O=C(NC1CCN(C(=S)Nc2ccccc2)CC1)C1CCCCC1
 : 0.39 | 0.9
OCC[C@@H]1C[C@H](O)[C@@H](O)[C@]2(CCCO2)O1
 : 0.42 | -0.38
Nc1ccc(C(=O)N/N=C\C=C\c2cccc([N+](=O)[O-])c2)cc1
 : 0.19 | -0.08
CCOc1ccc(C(=O)N(CN2CCCC2=O)c2ccccc2)cc1
 : 0.09 | -1.3
CCCCc1nc(C(N)=O)c2[nH]c(=O)n(-c3ccc(OC)cc3OC)c2n1
 : 0.36 | -0.27
Oc1c(-c2cc(-c3ccco3)[nH]n2)ccc2ccccc12
 : 1.1 | -1.4
O=C(Nc1ccc(S(=O)(=O)N2CCCC2)cc1)c1ccc(CN2CCc3ccccc3C2)cc1
 : 1.3 | -1.3
CCn1c(=O)c2c3c(sc2n2cnnc12)CCC3
 : 0.09 | 1.1
COc1ccccc1NS(=O)(=O)c1cc(NC(=O)c2ccc(Cl)nc2)ccc1Cl
 : 0.64 | 0.74
Cc1ccccc1NS(=O)(=O)c1nnc(NC(=O)c2ccc(Cl)cc2)s1
 : 0.14 | -0.17
Cc1ccc(CCNC(=O)c2ccc(CS(=O)(=O)Cc3ccccc3F)o2)cc1
 : 1.2 | -0.07
CCOC(=O)c1c(NC(=S)Nc2ccccc2C)sc2c1CCC2
 : 0.32 | 0.01
CN(c1ccccc1)S(=O)(=O)c1cccc(NC(=O)CSc2nncn2C)c1
 : 0.07 | -0.71
Cc1cccc(C)c1NC(=O)C1(NC(=O)C2CCC(=O)N2)CCCCC1 (centres undefined)
 : 0.67 | 0.35
Cc1ccc(-n2cnc(=O)c3cccnc32)cc1
 : 0.45 | 1.1
Cc1ccc(N(Cc2ccc(C(=O)Nc3c(C)n(C)n(-c4ccccc4)c3=O)cc2)S(C)(=O)=O)cc1C
 : 0.01 | -1.3
O=C(CC1NCCNC1=O)Nc1ccccc1 (centres undefined)
 : 0.56 | -0.52
C=CCOc1ccc2ccccc2c1CNn1cn[nH]c1=S
 : 0.42 | 0.08
Cc1ccc(CN2CCN(Cc3cnc(C)[nH]3)CC2CCO)cc1 (centres undefined)
 : 0.21 | -0.53
CCOC(=O)c1c(NC(=O)CSc2nnc(-c3ccc(OC)cc3)o2)sc2c1CCC2
 : 0.6 | -0.81
C=CCn1c(COc2ccccc2F)nnc1SCC(=O)NC(=O)NCc1ccco1
 : 1.4 | 0.07
CC(=O)C(C)n1cnc2scc(-c3ccc(C)cc3)c2c1=O (centres undefined)
 : 0.41 | 3.3
CCOC(=O)CSC1=N/C(=C\c2ccc(OC)c(OC)c2)C(=O)N1C
 : 1.8 | -0.7
Cc1ccc(C(=O)OC(C)C(=O)Nc2ccc(S(N)(=O)=O)cc2)cc1S(=O)(=O)N1CCOCC1 (centres undefined)
 : 1.5 | -1.2
O=C(Oc1ccc2ccc(=O)oc2c1)c1ccccc1
 : 0.92 | -0.06
CCCCCN(C(=O)CCC(=O)OCCOc1ccccc1)c1c(N)n(CCCC)c(=O)[nH]c1=O
 : 1.4 | -0.29
CC1CC(NC2=NCCS2)CC(C)(C)C1 (centres undefined)
 : 0.01 | 1.3
CC[N+](CC)(CC)C/C=C/CN1CCCCC1
 : 0.15 | -0.72
Cc1ccc(S(=O)(=O)Nc2nc(C)cc(NN)n2)cc1
 : 0.36 | 2.1
CCn1c(N2CCN(C(=O)c3ccco3)CC2)nc2ccccc21
 : 1.8 | -0.98
N#Cc1cc2sc3nnc(-c4ccncc4)n3c2cc1C#N
 : 0.68 | 0.13
Nc1[nH]nc2c1NN(c1ccc(Cl)cc1Cl)N2
 : 0.03 | 0.68
CCc1ccc(OCCNC(=O)c2cccs2)cc1
 : 0.83 | 0.58
C/C(=N\Nc1ncc(Cl)cc1Cl)c1ccc(S(=O)(=O)NCc2ccco2)cc1
 : 1.2 | -0.65
CCn1cnc2sc(C(=O)Oc3cccc(C)c3)c(C)c2c1=O
 : 0.19 | -0.49
CCc1nc(SCC(=O)c2ccc(C)c(C)c2)n[nH]1
 : 0.97 | -2.2
CC(C)(C)c1ccc(C(CC(=O)O)NC(=O)Cc2ccc(F)cc2)cc1 (centres undefined)
 : 1.4 | 2.3
Oc1cccnc1SCc1ccccc1
 : 1.1 | -0.03

The list goes on:
Results follow in this order: KCNQ2 enhance | KCNQ2 enhance baseline
COC(=O)c1ccc(/C=C/c2c(-c3ccc(OC)cc3)oc3ccccc23)cc1
 : 0.24 | -0.47
CCOC(=O)c1cc(NC(=O)c2ccc(C)cc2)c(=O)oc1C(F)(F)F
 : 1.4 | -0.23
CCCN1CCN(C(=O)c2ccc3nc(CC)c(CC)nc3c2)CC1
 : 0.39 | -1
Cc1c(NC(=O)c2ccc(F)c(S(=O)(=O)N3CCOCC3)c2)c(=O)n(-c2ccccc2)n1C
 : 0.21 | -0.1
CCc1cccc2c(=O)c(C(=O)NCCCOC)c[nH]c12
 : 0.84 | 3.4
C=C1CCN(Cc2ccccc2)S(=O)(=O)c2ccccc21
 : 0.12 | 0.4
CCn1c2ccccc2c2cc(C#N)c(N)nc21
 : 0.34 | -2.5
COc1cc(/C=C(\C#N)c2nn(CCO)c(N)c2C#N)cc(OC)c1OC
 : 1.5 | 1.6
C[C@@]12CC[C@H]3OC(=O)C=C3C1CC[C@@]13CC(CCC12)[C@](CO)(O[C@H]1O[C@H](CO)[C@@H](O)[C@H](O)[C@H]1O)C3 (some centres undefined)
 : 0.04 | -0.31
COc1ccc(/C=N/n2c(=O)[nH]c3c([nH]c4ccc(C)cc43)c2=O)cc1CN1CCOCC1
 : 0.84 | -0.6
COc1ccc(NC(=O)C2CCCN(S(=O)(=O)c3cnc[nH]3)C2)cc1 (centres undefined)
 : 1.5 | -0.78
Oc1ccc(/C=N/N2CCN(C3c4ccccc4-c4ccccc43)CC2)cc1
 : 1.1 | -0.03
